# Ecoli rRNA inh – inhibits bacterial ribosomal RNA function over humanized ribosomes; hit rate 1.6% among 350,000; E. coli WT GFP vs humanized-ribosome RFP mutants, fluorescence, 24 h; hits give low values; DMSO median 0, no signal -100; GFP signal change (wild-type ribosome), % (concentration not given with the values);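 active means significant combined selectivity score with lowered wild-type GFP, culture density cut under 30%, mutant RFP and density less affected; inactive means any of these conditions unmet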; further: one replicate is shown; some compounds called inactive have numbers as strong as hits
# Ecoli growth – E. coli growth inhibition; Escherichia coli growth, OD600, 23 h; hits give low values; OD600 absorbance (no concentration beside the values); hit rate 0.21% among 330,000; AID 1053175;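 active means OD600 absorbance below the run mean of sample wells minus 3.6 SD, in any replicate, cut at about 0.56 in these data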;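 further: stock transfer was 300 nL into about 60 µL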
# ALR inh – human ALR oxidase inhibition via reduced H2O2; P55789; purified ALR, DTT oxidation, H2O2 HRP-luminol luminescence; inhibition, % (test concentration not listed); hit rate 3.8% among 290,000;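 active means mean and each replicate at 75% or more; inconclusive means only one of the two met; inactive means neither met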;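 further: stock transfer was 7.5 nL into about 7.5 µL; 0% = neutral wells and 100% = wells with inactivated enzyme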
# Target sequence (P55789 whole entry, looked up): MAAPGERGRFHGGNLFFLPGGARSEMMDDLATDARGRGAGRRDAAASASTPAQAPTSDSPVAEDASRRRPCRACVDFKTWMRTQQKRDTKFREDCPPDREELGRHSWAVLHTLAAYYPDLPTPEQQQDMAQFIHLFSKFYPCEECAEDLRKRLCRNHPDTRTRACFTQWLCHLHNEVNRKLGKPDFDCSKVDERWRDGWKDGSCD
# FGF22 binding – shifts melting point of recombinant human FGF22. recombinant FGF22 thermal shift, SYPRO orange fluorescence; percent of sucrose octasulfate shift, DMSO zero. Q9HCT0. AID 651658. calls only at 9.99 µM. hit rate 1.5% among 340,000;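 active means melting point raised past a set limit in the mean and every replicate; inconclusive means no clear call; three in four hits are not shown here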
# Target sequence (Q9HCT0 whole entry, looked up): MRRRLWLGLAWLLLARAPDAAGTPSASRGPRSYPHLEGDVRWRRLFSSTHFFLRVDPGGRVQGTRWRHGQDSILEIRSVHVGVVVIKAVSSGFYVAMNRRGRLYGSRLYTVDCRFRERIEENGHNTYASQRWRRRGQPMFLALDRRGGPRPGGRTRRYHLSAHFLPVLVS
# Vif A3G – HIV-1 Vif–A3G interaction blockers – biochemical, TR-FRET, GST-Vif 1-94, biotin-A3G peptide, dose response retest, primary screen (AID 1117319) | TR-FRET GST-Vif / biotin-A3G peptide binding; higher % means a stronger effect; test concentration not given here; strong numbers were not always called active | inhibition, %; hits with a dose series show IC50 in µM | hit rate 0.57% among 260,000;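 active means above the screen mean plus three standard deviations and confirmed in dose response; inconclusive means results disagree or hit not tested in dose response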;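 further: Vif residues 1-94 fused to GST binding biotinylated APOBEC3G peptide 110-148; 0% = full assay without inhibitor and 100% = GST in place of GST-Vif; retest series ran down from 100 µM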
# AF4-AF9 inh – blocks AF4 peptide binding to human AF9 | inhibition, % at 10 µM | hit rate 0.47% among 350,000 | P42568 | AlphaScreen, biotin-AF4 peptide binding to FLAG-AF9;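 active means every replicate reaching a set inhibition limit, whatever the replicate mean, cut at about 25% in these data; inconclusive means mean inhibition reaches that limit but some replicates miss it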;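 further: 0% = plate neutral control median and 100% = total signal loss; the record names both 10 and 1 µM as test concentration; the first replicate is given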
# HNF4A DNA FP – change in binding of human HNF4 alpha to DNA; P41235; HNF4a-FITC DNA binding, fluorescence polarization, 1 h; activity change, % at 10 µM; hit rate 0.3% among 360,000; AID 1224865; in the data active means activity change above about 30%, passing the limit was not always enough;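 further: controls were the assay level and a saturating level of protein; the project sought stronger binding though the title names inhibitors; some compounds called inactive have numbers as strong as hits; positive values seem to mean higher polarization but the record does not say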
# Target sequence (P41235 whole entry, looked up): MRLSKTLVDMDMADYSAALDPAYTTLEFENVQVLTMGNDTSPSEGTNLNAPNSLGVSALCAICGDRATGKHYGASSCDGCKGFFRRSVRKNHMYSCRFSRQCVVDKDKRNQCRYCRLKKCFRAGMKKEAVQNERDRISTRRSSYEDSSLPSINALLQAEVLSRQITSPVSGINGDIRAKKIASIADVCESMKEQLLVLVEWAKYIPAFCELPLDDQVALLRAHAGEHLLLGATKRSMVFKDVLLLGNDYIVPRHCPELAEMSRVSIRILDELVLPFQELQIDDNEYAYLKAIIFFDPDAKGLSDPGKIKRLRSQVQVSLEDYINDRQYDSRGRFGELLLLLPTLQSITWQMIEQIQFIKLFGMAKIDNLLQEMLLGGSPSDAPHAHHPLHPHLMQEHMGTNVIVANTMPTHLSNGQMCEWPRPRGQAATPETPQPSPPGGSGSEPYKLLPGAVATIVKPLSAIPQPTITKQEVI
# Ecoli rRNA inh OD600 – recorded beside Ecoli rRNA inh, whose call it bears; OD600 change, %; measured here: OD600 growth;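 optical density of the mix in the first replicate; 0 = DMSO median and -100 = no signal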
# Ecoli rRNA inh RFP – also measured in Ecoli rRNA inh; calls as there; RFP signal change, %; measured here: RFP humanized mutant strains;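 first replicate; 0 = DMSO median and -100 = no signal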
# * hit, by the source's call; i = inactive; ? = inconclusive; nt = not tested or not shown; & = joins results of further samples.
SMILES,Ecoli rRNA inh,Ecoli rRNA inh OD600,Ecoli rRNA inh RFP,Ecoli growth,ALR inh,FGF22 binding,Vif A3G,AF4-AF9 inh,HNF4A DNA FP
COc1ccc(OCC(=O)Nc2ccc(S(=O)(=O)Nc3cc(C)on3)cc2)cc1,3.8,-7.6,-3.6,0.705,nt,i,2.3%,-1.6,-3.1
C[N+]1(CC#CC(O)(c2ccccc2)c2ccccc2)CCCC1,19.7,11.9,-4.8,0.71,-0.9,i,9.3%,-2.7,-2.4
CCC(=O)N1CC2(C1)CN(C(=O)CN1CCOCC1)[C@H](CO)c1[nH]c3cc(OC)ccc3c12,4.2,5.3,0.7,nt,nt,i,nt,-7.4,nt
CO[C@H]1CN(C)C(=O)c2cc(NC(=O)c3cc(C)on3)ccc2OC[C@@H](C)N(C(C)=O)C[C@H]1C,1.9,7.1,-1.2,nt,nt,i,nt,1.6,nt
CC(C)c1csc(CN2CCN(Cc3ccc(F)c(F)c3)C(CCO)C2)n1 (centres undefined),-12.2,-0.6,2.1,0.698,-22.3,i,0.0%,1.2,-0.9
CCOC(=O)c1cnc(SCC(=O)Nc2cc(OC)cc(OC)c2)nc1N,nt,nt,nt,0.744,-12.1,nt,-0.4%,nt,-4.8
CCOC(=O)c1sc(NC(=O)COc2ncnc3ccccc23)c(C(=O)OCC)c1C,14.4,9.3,1.6,0.73,-8.4,i,8.7%,-3.8,-0.6
O=C(Nc1ccc(F)cc1)N1CCCCN2[C@H](C1)[C@@H](c1ccc(-c3ccncc3)cc1)[C@@H]2CO,-9.5,-14.9,-2.1,nt,nt,i,nt,-3.9,nt
CC1=Nc2ccccc2N=C(NC(=O)CN2CCN(c3ccccc3)CC2)C1c1ccccc1 (centres undefined),4.7,12.8,-0.1,0.691,9.9,i,nt,1.2,-1.9
CCN(CC(=O)Nc1cccc(OC)c1)c1ncnc2sc(C)c(C)c12,nt,nt,nt,0.681,87.5*,nt,-5.5%,nt,0.8
CCCCNC(=O)c1cc2nc(-c3ccc(OC)cc3)cc(C(F)(F)F)n2n1,nt,nt,nt,nt,nt,i,nt,-1.4,2.1
Cc1nn(C)c(C)c1/C=C(/C(=O)C(C)(C)C)n1cncn1,10.8,10.0,-0.5,0.703,-8.9,i,0.9%,-5.3,2.3
COc1ccc(CNC(=O)C2CCCN2S(=O)(=O)c2ccc(F)cc2)cc1 (centres undefined),6.2,-1.8,-1.9,0.753,-20.9,i,1.3%,-1.0,0.5
CCOC(=O)c1c(NC(=O)c2ccc(N3C(=O)[C@@H]4[C@H](C3=O)[C@H]3C=C[C@@H]4C3)cc2)sc2c1CCCC2,15.4,7.4,2.4,0.692,-0.5,i,nt,-6.5,2.4
CCc1nc2ccc(C(=O)NCCOc3ccc(OC)cc3)cn2c1N(C)C(=O)Cc1ccccc1,-2.9,-1.5,3.5,nt,nt,i,nt,0.3,2.3
O=C(Nc1nnc(SCc2cccnc2)s1)C1CC(=O)N(c2ccccc2)C1 (centres undefined),0.3,-5.2,-0.9,0.716,42.4,i,nt,-3.0,2.7
CCN(Cc1ccncc1)C(=O)c1ccc2c(c1)S(=O)(=O)c1ccccc1C2=O,-8.9,-8.0,-1.2,0.631,-13.3,i,-5.8%,0.9,-3.9
COc1cc(CN(C)CC(=O)c2[nH]c(C)c(C(C)=O)c2C)ccc1OC(F)F,nt,nt,nt,0.766,-2.0,nt,20.9%,nt,3.3
COc1cc(NC(=O)COc2cccc3c2OC(C)(C)C3)cc(OC)c1OC,-21.4,-20.0,2.1,0.645,-15.5,i,-10.4%,1.6,1.6
C[C@H]1CN([C@@H](C)CO)S(=O)(=O)c2ccc(C#CC3(O)CCCC3)cc2O[C@H]1CN(C)C(=O)c1ccncc1,1.3,7.9,-1.7,nt,nt,i,nt,-0.7,nt
Cc1ccc(C=NNc2ccc([N+](=O)[O-])cn2)cc1,16.1,13.9,5.9,0.698,nt,i,2.3%,-5.2,-2.6
O=C(c1cccs1)N1CCN(Cc2cccc([N+](=O)[O-])c2)CC1,1.0,-9.1,-9.2,0.687,-7.1,i,nt,1.9,4.3
Cc1cc(C)nc(SCC(=O)N(C)CC(=O)Nc2c(Cl)cccc2Cl)n1,4.2,1.6,-1.4,0.669,-12.4,i,nt,-10.3,6.0
O=S1(=O)N[C@H](Cc2ccccc2)COc2cccc(N3CCCC3)c21,-37.2,-34.7,-6.8,nt,nt,i,nt,2.7,nt
Cc1nc2n[nH]c(N)c2c2c1COC(C)(C)C2,nt,nt,nt,0.74,62.3,nt,?,nt,1.2
COc1ccc(CNc2nc3nc(C)cc(C)n3n2)cc1,1.4,4.0,-6.4,0.659,1.1,i,14.3%,?,1.6
CCc1nc(SCC(=O)N2CCN(C(=O)c3ccco3)CC2)c2c3c(sc2n1)CCCC3,nt,nt,nt,0.699,-1.4,nt,24.9%,nt,-0.4
COc1ccc(OC)c(S(=O)(=O)CC(=O)c2cc3ccc(OC)cc3oc2=O)c1,nt,nt,nt,0.7,-14.3,nt,nt,nt,-0.6
CS/C(=N\S(=O)(=O)c1cccs1)Nc1ccc(N2CCOCC2)cc1,-3.1,-16.1,-1.6,nt,27.9,i,3.3%&1.5%,-2.4,-1.7&7.8
O=C(N/N=C/c1c(O)ccc2ccccc12)c1cccnc1,-24.8,-41.6,-2.3,nt,17.5,i,3.5%,2.9,43.3*

# A draw from above in order of molecular weight, falling.
SMILES,Ecoli rRNA inh,Ecoli rRNA inh OD600,Ecoli rRNA inh RFP,Ecoli growth,ALR inh,FGF22 binding,Vif A3G,AF4-AF9 inh,HNF4A DNA FP
CCc1nc2ccc(C(=O)NCCOc3ccc(OC)cc3)cn2c1N(C)C(=O)Cc1ccccc1,-2.9,-1.5,3.5,nt,nt,i,nt,0.3,2.3
CCC(=O)N1CC2(C1)CN(C(=O)CN1CCOCC1)[C@H](CO)c1[nH]c3cc(OC)ccc3c12,4.2,5.3,0.7,nt,nt,i,nt,-7.4,nt
CCOC(=O)c1sc(NC(=O)COc2ncnc3ccccc23)c(C(=O)OCC)c1C,14.4,9.3,1.6,0.73,-8.4,i,8.7%,-3.8,-0.6
COc1ccc(OC)c(S(=O)(=O)CC(=O)c2cc3ccc(OC)cc3oc2=O)c1,nt,nt,nt,0.7,-14.3,nt,nt,nt,-0.6
COc1ccc(OCC(=O)Nc2ccc(S(=O)(=O)Nc3cc(C)on3)cc2)cc1,3.8,-7.6,-3.6,0.705,nt,i,2.3%,-1.6,-3.1
O=C(Nc1nnc(SCc2cccnc2)s1)C1CC(=O)N(c2ccccc2)C1 (centres undefined),0.3,-5.2,-0.9,0.716,42.4,i,nt,-3.0,2.7
CC(C)c1csc(CN2CCN(Cc3ccc(F)c(F)c3)C(CCO)C2)n1 (centres undefined),-12.2,-0.6,2.1,0.698,-22.3,i,0.0%,1.2,-0.9
CCCCNC(=O)c1cc2nc(-c3ccc(OC)cc3)cc(C(F)(F)F)n2n1,nt,nt,nt,nt,nt,i,nt,-1.4,2.1
CCN(CC(=O)Nc1cccc(OC)c1)c1ncnc2sc(C)c(C)c12,nt,nt,nt,0.681,87.5*,nt,-5.5%,nt,0.8
O=S1(=O)N[C@H](Cc2ccccc2)COc2cccc(N3CCCC3)c21,-37.2,-34.7,-6.8,nt,nt,i,nt,2.7,nt
O=C(c1cccs1)N1CCN(Cc2cccc([N+](=O)[O-])c2)CC1,1.0,-9.1,-9.2,0.687,-7.1,i,nt,1.9,4.3
O=C(N/N=C/c1c(O)ccc2ccccc12)c1cccnc1,-24.8,-41.6,-2.3,nt,17.5,i,3.5%,2.9,43.3*

# Later entries:
SMILES,Ecoli rRNA inh,Ecoli rRNA inh OD600,Ecoli rRNA inh RFP,Ecoli growth,ALR inh,FGF22 binding,Vif A3G,AF4-AF9 inh,HNF4A DNA FP
COc1ccc2c(c1)Sc1ccccc1N2,-13.0,13.2,16.2,0.71,nt,i,21.6%,8.2,3.1
CCCCP(=O)(CCCC)CCP(=O)(c1ccccc1)c1ccccc1,6.5,0.4,4.4,0.692,-29.9,i,nt,3.5,4.9
Cc1nc(NC(=O)COC(=O)c2ccc(S(=O)(=O)N3CCc4ccccc4C3)cc2)c(Cl)cc1Cl,9.6,14.0,1.8,0.739,-1.2,i,-6.1%,-3.7,-1.5
C/C(=N\NC(=O)c1ccc(N(C)C)cc1)c1ccc(C)cc1C,-4.5,-13.0,-4.4,nt,5.8,i,-2.5%,1.7,-0.7
C[C@@H]1CCCCO[C@@H](CN(C)Cc2ccc3c(c2)OCO3)[C@H](C)CN([C@@H](C)CO)C(=O)c2cc(NC(=O)NC3CCCCC3)ccc2O1,0.9,-3.0,1.8,nt,nt,i,nt,6.9,nt
CSc1ncc(Cl)c(C(=O)NCc2cccnc2)n1,10.4,13.4,-0.6,0.653,-10.3,i,-1.3%,-1.7,1.7
Cc1ccc(-c2noc(CCC(N)=O)n2)cc1,nt,nt,nt,0.664,-1.5,nt,?,nt,16.6
Cc1ccccc1NC(=O)c1ccc2ccccc2c1,-8.6,-0.9,-2.5,0.628,-3.7,i,nt,0.9,2.5
COc1cccc(-c2c(C(=O)O)cc(O)c3ccc(OC)cc23)c1,9.8,10.5,1.0,0.729,nt,i,-1.1%,3.9,4.7
COc1ccc(N2C(=O)CCC2=O)c(OC)c1,-0.9,-14.4,-3.6,0.705,37.6,i,nt,-2.3,1.6
O=C(O)CN1C(=O)C2C3C=CC(C2C1=O)C1C(=O)N(CC(=O)O)C(=O)C31 (centres undefined),5.5,9.5,-1.7,0.696,nt,i,2.2%,-4.3,-0.3
O=C(NCc1nc2ccccc2[nH]1)c1cccc(S(=O)(=O)N2CCCCC2)c1,-27.5,-29.1,-2.6,0.69,1.0,i,-7.8%,0.5,3.1
O=C(C[C@H]1CC[C@@H]2[C@H](COC[C@H](O)CN2Cc2ccccc2F)O1)NCc1ccccc1F,-1.6,-9.2,-0.6,nt,nt,i,nt,0.1,nt
Cc1cc(S(=O)(=O)N2CCOCC2)ccc1OCC(=O)NCC1CCCO1 (centres undefined),7.5,10.6,-3.9,0.656,-3.3,i,nt,-0.3,1.1
O=C(NCC1CCCO1)c1cccc(S(=O)(=O)Nc2ccc(F)cc2)c1 (centres undefined),5.4,2.3,0.3,0.712,-4.2,i,-5.0%,-0.8,-2.9
O=Cc1ccc(C(=O)OCC(=O)NC(=O)Nc2ccccc2F)cc1,nt,nt,nt,0.677,-1.4,nt,-9.0%,nt,4.1
Cc1ccc(S(=O)(=O)N2CCCCC2CCNC(=O)C(=O)NCc2ccccc2C)cc1 (centres undefined),-9.3,-7.3,6.8,0.73,-1.5,i,-12.0%,2.2,-0.3
C[C@H]1CN([C@@H](C)CO)C(=O)Cc2cc(NC(=O)Nc3cccc4ccccc34)ccc2O[C@H]1CN(C)S(=O)(=O)c1ccccc1,-0.9,1.2,0.6,nt,nt,i,nt,-7.7,nt
CCOC(=O)C1Nc2c(F)cc(C)cc2C2c3ccccc3CC12 (centres undefined),7.6,11.1,-0.6,0.66,-29.3,i,nt,1.2,0.1
O=C(COC(=O)c1ccccc1C(=O)c1ccccc1)c1ccco1,nt,nt,nt,0.711,15.5,nt,?,nt,-1.4
O=C(Cc1ccccc1)NN=C1CCCC1,11.4,16.5,0.4,0.673,nt,i,-4.1%,-2.6,-0.5
COc1ccccc1C(=O)NCCC(=O)N1CCN(c2ccc(C(F)(F)F)cn2)CC1,-16.7,-24.8,-1.1,0.648,nt,i,-1.5%,-2.8,6.2

# Assay outcomes as filed in PubChem.

# Some of the compounds tested (hit frequency here may not be typical).
